Source: PubChem BioAssay (National Center for Advancing Translational Sciences (NCATS))
Six1-Eya2 inh: blocks human Six1 binding to Eya2. hit rate 0.56% among 360,000. AlphaScreen GST-Six1/His-Eya2 binding, biochemical; hits give low values; control for the full effect not named in the record. activity change, % (test concentration not listed). Q15475+O00167; in the data active = activity change below about -65%; inconclusive = about -30% to -65%; inactive = above about -30%; further: on the % scale 0 is the no-effect control and ±100 the full control effect; compound concentration not given in the record
Target sequence (O00167 whole entry, looked up): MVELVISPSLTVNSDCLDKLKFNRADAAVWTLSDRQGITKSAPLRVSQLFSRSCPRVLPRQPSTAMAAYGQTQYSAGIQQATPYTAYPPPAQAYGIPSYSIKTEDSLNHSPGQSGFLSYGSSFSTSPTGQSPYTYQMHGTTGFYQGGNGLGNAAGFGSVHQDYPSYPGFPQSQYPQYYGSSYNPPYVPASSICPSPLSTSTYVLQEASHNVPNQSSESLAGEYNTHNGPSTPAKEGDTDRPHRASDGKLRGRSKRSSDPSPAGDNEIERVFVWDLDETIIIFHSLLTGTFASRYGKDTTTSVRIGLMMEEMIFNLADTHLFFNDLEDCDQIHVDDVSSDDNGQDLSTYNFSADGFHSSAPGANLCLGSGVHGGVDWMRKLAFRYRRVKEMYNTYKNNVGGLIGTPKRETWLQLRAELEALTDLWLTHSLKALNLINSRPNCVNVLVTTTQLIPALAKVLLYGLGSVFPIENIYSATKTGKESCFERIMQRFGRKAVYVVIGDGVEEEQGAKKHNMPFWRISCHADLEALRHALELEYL
Target sequence (Q15475 whole entry, looked up): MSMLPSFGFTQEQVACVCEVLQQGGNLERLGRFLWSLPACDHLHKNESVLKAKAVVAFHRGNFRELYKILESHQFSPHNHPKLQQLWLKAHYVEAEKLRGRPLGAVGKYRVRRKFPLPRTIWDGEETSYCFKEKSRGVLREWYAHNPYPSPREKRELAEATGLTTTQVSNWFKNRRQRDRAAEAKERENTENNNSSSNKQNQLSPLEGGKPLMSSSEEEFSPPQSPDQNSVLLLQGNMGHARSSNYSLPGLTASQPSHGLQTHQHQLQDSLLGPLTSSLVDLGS
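Compounds are tested against tagged Six1 and Eya2 proteins bridged by glutathione donor and nickel acceptor beads; after a one-hour incubation at 37 °C without light, AlphaScreen emission is recorded.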
CtBP-E1A blk: CtBP/E1A binding inhibition. AlphaScreen GST-E1A/His-CtBP binding, 1536-well; hits give low values; control for the full effect not named in the record. activity change, % (test concentration not listed). hit rate 0.49% among 340,000; in the data active means activity change below about -65%; inconclusive means about -30% to -65%; inactive means above about -30%; further: on the % scale 0 is the no-effect control and ±100 the full control effect; compound concentration not given in the record
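Steps: dispense buffer (Tris pH 8.0, NaCl 300 mM, TCEP 1 mM, BSA, Tween 20); add 5X protein mix (GST-E1A, His-CtBP, 125 nM each); pin 23 nL compound; 2 h at 37 °C, dark; add 5X beads (50 ug/mL); 1 h; read.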
D2 potentiator: potentiates the human D2 dopamine receptor allosterically | DiscoveRx D2 beta-arrestin cells, luminescence, 90 min; 100% = 57 uM dopamine signal | potentiation, % (concentration not given with the values) | hit rate 0.23% among 360,000 | AID 624464; active = potentiation of 50% or more; inconclusive = 30% to 50%; inactive = 30% or less;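 further: compound concentration not given in the record; tested on top of an EC20 dose of dopamine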
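PathHunter beta-arrestin assay in DiscoveRx D2 cells. Compounds were added with an EC20 of dopamine (50 nM final) for 90 min at 37 deg C. Luminescence was read 1 h after detection reagent, with 57 uM dopamine as the EC100 control.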
PINK1 modulator: changes PINK1 expression. PINK1 immunofluorescence, high-content cytometry, 24 h. Potency, µM (top dose mostly 76.6 µM), inactives show top-dose activation (PINK1 increase), hits mostly activators. hit rate 0.2% among 410,000; active = well fitted activation curve with a large enough effect; inconclusive = small, poorly fitted or top-dose-only effect; inactive = flat fitted curve, though single readings scatter; cell line not stated here;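 further: potency means the concentration at half of the fitted maximal effect; % of control where 0% means no effect; nearly all actives have a fitted effect of over 65% in size; a mitochondrial uncoupler was the plate control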
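PINK1 protein, normally rapidly degraded, was detected by immunofluorescence after 24 hour compound treatment of a stable cell line. Titration data (5 concentrations) came from laser-scanning cytometry, with CCCP-treated wells as controls.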
D2 ag: agonists of human D2 dopamine receptor (beta-arrestin). DiscoveRx PathHunter D2 beta-arrestin, luminescence, 90 min; 100% = 57 uM dopamine signal. P14416. activation, % (test concentration not listed). hit rate 0.084% among 360,000; in the data active = activation above about 40%; inconclusive = about 15% to 40%; inactive = below about 15%; further: compound concentration not given in the record; the text of the record calls up to 30% inactive
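DiscoveRx PathHunter D2 beta-arrestin cells (2,100/well) attached overnight, then compound-stimulated 90 min at 37 C in HBSS/10 mM HEPES/0.1% Tween-20 buffer; beta-galactosidase complementation read by luminescence after 1 h at ambient temperature. Dopamine 57 uM final (EC100) as control.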
TRPV1 PAM: potentiators of human vanilloid receptor 1 (TRPV1); Q8NER1; TRPV1-expressing cells, Fluo-8 calcium influx, capsaicin EC20 potentiation; host cell line not named in the record; control for the full effect not named in the record; potentiation, % at 8.33 µM; hit rate 0.02% among 320,000; active means potentiation above 80%; inconclusive means 30% to 80%; inactive means below 30%; further: 0% is about no effect
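Cells expressing TRPV1 were dye-loaded with Fluo-8 and read kinetically: 10 s baseline, 3 min after compound (agonist portion), then 2 min after EC20 capsaicin (allosteric enhancer portion). Calcium-bound dye fluorescence at 480/520 nm.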
Sfp inh: inhibitors of Bacillus subtilis Sfp phosphopantetheinyl transferase. Biochemical Sfp PPTase activity, qHTS. Potency, µM, inactives show max response, negative = inhibition, actives largely listed as inhibitors. hit rate 3.5% among 310,000. AID 1490; active means well fitted inhibition curve with a large enough effect; inconclusive means small, poorly fitted or top-dose-only effect, or another doubt; inactive means no such curve, though single readings can be large or run the other way;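 further: the enzyme is Sfp with the accession as filed and its product quenches rhodamine fluorescence; potency means the concentration at half of the fitted maximal effect; 0% = enzyme reaction without inhibitor and -100% = no enzyme wells; top concentration of the series not given in the record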
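Fluorescence-quenching assay with 15 nM Sfp, 5 uM rhodamine-CoA and 12.5 uM BHQ-2-labelled ybbR peptide in pH 7.6 Hepes/MgCl2 buffer. Enzyme was pre-incubated with compound for 15 min at room temperature. Rate was taken from the 30-min fluorescence change (525/598 nm).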
Numbers without * were called inactive; ? = inconclusive; . = no result given; & = joins results of further samples; [ ] = dose if it differs, or a comment.

Order of results – Six1-Eya2 inh	CtBP-E1A blk	D2 potentiator	PINK1 modulator	D2 ag	TRPV1 PAM	Sfp inh
CCOc1ncccc1C(=O)N1CCN(c2ccc(C(F)(F)F)cn2)CC1
 : 12	-7	-4	3.1%	1.2	8	20%
CCOc1ccc(/C=N/NC(=O)c2cccc3ccccc23)c(OCC)c1
 : 17	0	13	3.6%	-1.6	0	15%
O=C(NCCC(=O)N1CCN(c2ccccc2F)CC1)c1ccco1
 : 0	-4	-1	1.7%	0.0	-2	.
CC1C/C(=N/O)C(C)CN1 (centres undefined)
 : 4	9	9	-1.8%	1.7	3	15%
CCOC(=O)c1c(C)c(C)n(Cc2ccc(OC)c(OC)c2)c1C
 : -16	-7	9	1.9%	1.1	-8	-1%
CC1Cc2nc(SCC(=O)Nc3ccc4c(c3)OCCO4)n(C)c(=O)c2S1 (centres undefined)
 : -4	-6	-4	0.1%[38.3 µM]	3.7	4	-3%
O=C(N/N=C\C=C\c1ccc(Br)cc1)c1ccc2c(c1)OCO2
 : -4	1	-5	5.6%	3.3	-2	5%
COC(=O)CSc1nnc(-c2ccc(OC)cc2OC)o1
 : -2	9	-10	12%[38.3 µM]	0.0	-8	-1%
COc1ccccc1N1CCN(C(=O)CCC(=O)O)CC1
 : 21	20	-19	-0.5%	-2.3	-1	4%
COCC(=O)N1CCN(c2cccc(Cl)c2)CC1
 : 6	0	-2	0.7%	-5.0	?	-2%
Cc1cc(C)cc(C(O)c2ncc(-c3ccc4ccccc4c3)[nH]2)c1 (centres undefined)
 : -14	?	-10	12%	-3.3	.	.
O=C(Nc1cccc(-n2cnnn2)c1)c1cccnc1
 : 2	.	-11	2.6%	-1.0	1	11%
COc1ccc(-c2[nH]c(-c3ccc4c(c3)OCO4)nc2-c2ccccc2)cc1
 : ?	-20	-15	?	-0.4	1	8%
COc1ccc(Cn2cc(CN3CC(N4CCSCC4)CS3(=O)=O)nn2)cc1 (centres undefined)
 : 12	0	.	-1.3%	.	.	.
CN(C(=O)c1cccc(S(=O)(=O)N2CCCC2)c1)C1CCCCC1
 : 0	13	-13	1.2%	-6.6	-13	.
Cc1nc(C)c(-c2csc(Nc3ccc(O)cc3C)n2)s1
 : -3	8	3	0.7%	?	-4	23%
COc1cccc(NC(=O)C2(C)CCN2Cc2cccc(OC)c2F)c1 (centres undefined)
 : 0	-11	2	0.3%	-2.9	.	.
Cc1ccn2c(-c3csc(NCc4ccccc4)n3)c(C)nc2c1
 : -5	-22	-10	3.5%	-0.8	3	?
O=C(NNc1ccccc1Br)C(=O)n1ccc2ccccc21
 : 2	-1	-3	1.7%	-0.4	-3	13%
O[C@@H]1C[C@H](c2ccccc2)N(Cc2cccs2)C[C@H]1n1cc(C2CC2)nn1
 : -3	1	1	0.6%	-9.3	.	.
O=C(NCC(c1ccco1)N1CCN(c2ccccc2)CC1)C(=O)NC1CCCCC1 (centres undefined)
 : -5	7	11	8.3%	-2.7	-18	.
O=C(NC1CCCCC1)C1CC(O)CN1C(=O)OCc1ccccc1 (centres undefined)
 : 9	-2	6	1.3%	-3.8	-2	20%
COc1ccc(C(=O)COC(=O)/C=C/c2ccccc2)c(OC)c1
 : 3	?	-3	0.3%	0.1	13	.
O=C(NC(c1ccccc1)c1ccccc1)C1CCCN(S(=O)(=O)c2cnc[nH]2)C1 (centres undefined)
 : -4	-1	-3	1.2%	-1.8	-4	-6%
O=C(NCc1ccccn1)[C@@H]1CCCN1C(=O)[C@@H]1CCCN1
 : ?	-29	.	1.0%	.	.	.
CCN(CC)CC(O)Cn1c(C)c(-c2ccccc2)c2cc([N+](=O)[O-])ccc21 (centres undefined)
 : -9	-13	-3	-1.9%	3.9	0	-15%
CCOC(=O)c1cn(CC#N)c2cc(F)c(F)cc2c1=O
 : 2	-17	-19	0.8%	-4.2	7	14%
Cc1ccc2cc(C)c3nnc(SCc4ccc(C(=O)O)cc4)n3c2c1C
 : -4	-9	2	0.0%	3.0	5	-7%
Cc1nc(CN2CCN(C(=O)c3ccc(C(C)(C)C)cc3)CC2)cs1
 : 2	0	-11	1.2%	-4.0	2	-7%
Cc1nc2nc[nH]n2c(=O)c1NC(=O)CC12CC3CC(CC(C3)C1)C2
 : 8&6	8&9	1&3	0.0%	2.8&-3.3	6&-13	-7%&27%
CC1CN(c2cc(=O)n(-c3ccccc3)c(=O)[nH]2)CC(C)O1 (centres undefined)
 : 2	1	-2	-1.2%	-2.9	0	6%
Cc1ccc(S(=O)(=O)Nc2cc(-c3ccc(Cl)cc3)nn2C)cc1
 : -5	.	-6	-0.2%	-1.8	11	25%
COc1ccc(S(=O)(=O)n2nc(C)c(S(=O)(=O)N3CCOCC3)c2C)cc1
 : 5	13	-3	0.1%	1.5	2	9%
CC[C@H](C)[C@@H](C(=O)NCCCCCCCCCCC(=O)N1CCN(C(=O)OC(C)(C)C)CC1)n1cc(CCCCCNC(=O)OC(C)(C)C)nn1
 : 3	4	1	0.4%	4.5	-31	.
Cc1nc2nc3c(c(=O)n2[nH]1)CCC3
 : 6	7	-3	-2.0%	-4.5	-18	22%
CN(C)c1cc[n+](Cc2ccccc2)cc1
 : 25	5	-6	0.6%	1.5	2	15%
Cc1ccc(Nc2nnc(-c3ccccc3N)o2)cc1C
 : -2	2	-10	2.3%	3.6	-1	14%
CC(C)/C=C1\CCc2c([nH]c3ccccc23)C1=O
 : 5	4	-4	-0.5%	0.8	-6	14%
COc1ccc(C2C(C(=O)Nc3ccccc3)=C(C)N=C3SCC(=O)N32)cc1 (centres undefined)
 : 6	19	-19	-0.7%	-4.9	-1	14%
O=C1[C@H]2[C@@H](c3ccc(F)cc3)N3C(=O)N(c4cccc(F)c4)C(=O)[C@@]3(Cc3ccccc3)[C@H]2C(=O)N1C1CCCCC1
 : -6	-4	-9	-0.2%	-2.4	?	.
COc1ccccc1NC(=S)NC(=O)/C=C/c1ccco1
 : -26	-11	-18	2.7%	-5.7	29	?
Cc1cc(C)c(S(=O)(=O)N2CC=C(c3ccccc3)CC2)c(C)c1
 : 24	4	-14	-0.6%	4.1	4	.
COCCCNc1nc(CC(C)C)nc2c1nnn2Cc1ccccc1
 : -3	.	-6	3.7%	-3.8	8	10%
COc1ccccc1CCNS(=O)(=O)c1cn(C)nc1C
 : -4	-7	-15	-0.3%	0.9	0	23%
CCOC(=O)C1=C(C)Nc2nc(SC)nn2C1c1ccc(C(=O)OC)cc1 (centres undefined)
 : 1	-2	-6	?	-2.4	1	23%
CCCOC(=O)c1ccc(NC(=O)C2C3C=CC(O3)C2C(=O)O)cc1 (centres undefined)
 : 4	0	-5	-0.4%	0.1	23	79µM*
CC(=O)c1ccc(NC(=O)C(C)N(C)CC(=O)Nc2cccc(F)c2)cc1 (centres undefined)
 : 1	-8	-8	1.7%	2.7	-5	-13%
O=C(O)C(c1ccccc1)C(O)C1CC=CCC1 (centres undefined)
 : -5	-1	-1	-1.5%	-0.7	.	.
CCn1c(SCC#N)nc2cc(S(=O)(=O)N3CCOCC3)ccc21
 : -10	-23	-10	-0.1%	-0.4	3	13%
Cc1ccc(N(Cc2cc3cc(C)ccc3[nH]c2=O)C(=O)c2cccs2)cc1
 : 3	-5	2	19%	-3.8	-2	14%
CC1CN(c2cc(=O)n(Cc3ccc(F)cc3)c(=O)[nH]2)CC(C)O1 (centres undefined)
 : 1	1	-5	-1.1%	-2.4	8	-12%
O=C(O)c1ccc(N/N=C/c2ccc(C(F)(F)F)cc2)cc1
 : -10	0	-7	-0.2%	-1.7	17	-1%

An excerpt from above in order of count of non-hydrogen atoms, highest first.
Order of results – Six1-Eya2 inh	CtBP-E1A blk	D2 potentiator	PINK1 modulator	D2 ag	TRPV1 PAM	Sfp inh
O=C1[C@H]2[C@@H](c3ccc(F)cc3)N3C(=O)N(c4cccc(F)c4)C(=O)[C@@]3(Cc3ccccc3)[C@H]2C(=O)N1C1CCCCC1
 : -6	-4	-9	-0.2%	-2.4	?	.
Cc1ccc(N(Cc2cc3cc(C)ccc3[nH]c2=O)C(=O)c2cccs2)cc1
 : 3	-5	2	19%	-3.8	-2	14%
CC(=O)c1ccc(NC(=O)C(C)N(C)CC(=O)Nc2cccc(F)c2)cc1 (centres undefined)
 : 1	-8	-8	1.7%	2.7	-5	-13%
COCCCNc1nc(CC(C)C)nc2c1nnn2Cc1ccccc1
 : -3	.	-6	3.7%	-3.8	8	10%
CCCOC(=O)c1ccc(NC(=O)C2C3C=CC(O3)C2C(=O)O)cc1 (centres undefined)
 : 4	0	-5	-0.4%	0.1	23	79µM*
CCn1c(SCC#N)nc2cc(S(=O)(=O)N3CCOCC3)ccc21
 : -10	-23	-10	-0.1%	-0.4	3	13%
O=C(O)c1ccc(N/N=C/c2ccc(C(F)(F)F)cc2)cc1
 : -10	0	-7	-0.2%	-1.7	17	-1%
Cc1ccc(Nc2nnc(-c3ccccc3N)o2)cc1C
 : -2	2	-10	2.3%	3.6	-1	14%
O=C(O)C(c1ccccc1)C(O)C1CC=CCC1 (centres undefined)
 : -5	-1	-1	-1.5%	-0.7	.	.
CN(C)c1cc[n+](Cc2ccccc2)cc1
 : 25	5	-6	0.6%	1.5	2	15%
Cc1nc2nc3c(c(=O)n2[nH]1)CCC3
 : 6	7	-3	-2.0%	-4.5	-18	22%
